NPYLR7 ag – mosquito NPYLR7 agonism; HEK293T NPYLR7/Galpha15, GCaMP6s calcium fluorescence; activation, % at 10 µM; hit rate 0.15% among 270,000; AID 1259423; in the data active = activation above about 40%;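 note: 0% = vehicle and 100% = reference agonist at the receptor; some compounds past the cut are filed as inactive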
NPYLR7 ag max-min – also measured in NPYLR7 ag; calls as there; activation, %; measured here: Max-Min RFU normalised activation; some inactives read as strong as hits;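 span of the calcium signal over five minutes; 0% = vehicle and 100% = native peptide agonist; compound fluorescence can raise it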
* = called active by the depositor; & = joins results of further samples. Some of the compounds tested. The share of hits here may be higher or lower than overall.

SMILES	NPYLR7 ag	NPYLR7 ag max-min
O=C(CCC1CCCN(C2CCSCC2)C1)Nc1ccccc1F (stereo unspecified)	5	4
Cc1ccc(C2CC(C(F)(F)F)n3ncc(C(=O)NCC4CCCO4)c3N2)cc1 (stereo unspecified)	2	-7
CN(C)c1ccc(NC(=O)c2cccc(F)c2)cc1CN(CC1CCCO1)C(=O)Cc1cccs1 (stereo unspecified)	-5	4
COc1ccc(C)cc1C(C)Nc1cc(C)nc2ncnn12 (stereo unspecified)	0	-2
COc1ccccc1N1CCN(CCCCNC(=O)c2ccc3ccccc3c2)CC1	-5&5	-6&-4
CCOC(=O)c1c(NC(=O)c2ccno2)c(-c2ccc(OC)cc2)cn1Cc1ccccc1	7	21
CC(C)NC(=O)CNC(=O)CSc1nc2ccccc2s1	21	6
COc1nc(-c2cccc(C(F)(F)F)c2)n(-c2ccc(NC(=O)c3ccc(C)c([N+](=O)[O-])c3)cc2)n1	19	14
CCOc1ccccc1N1CCN(C(=O)c2cc(-c3cccc(OC)c3)nc3cc(-c4ccccc4)nn23)CC1	-3	3
CCc1ccc(C(=O)Nc2c(-c3ccc(C)cc3)nc3ccccn23)cc1	-1	4
COc1ccc(-c2noc(CN(C)Cc3nc4ccc(F)cc4[nH]3)n2)cc1	6	2
O=C1CCCC2=Nc3ncnn3C(c3cccs3)C12 (stereo unspecified)	7	5
O=C(CSc1nnc(-c2ccc(Cl)cc2)n1-c1ccccc1)N/N=C\c1ccccn1	-7	-7
Cc1cccc(-c2cn[nH]c2C2CCN(C(=O)c3noc(C)c3CO)CC2)c1	4	4
COc1ccc(Nc2nc3cc(Cl)ccc3o2)cc1Cl	2	4
CC1=C(C(=O)OCC(C)C)C(c2ccsc2)C2=C(CCCC2=O)N1 (stereo unspecified)	-7	-9
O=C(Nc1ccc2c(c1)CCO2)C1=NN(Cc2ccccc2)C(=O)CC1	0	-1
O=C1CCC(C(=O)N2CCN(C3CCCCC3)C(=O)C2)CN1CCc1ccccn1 (stereo unspecified)	5	3
Nc1n[nH]c(-c2ccncc2)n1	-2	-3
Cc1cc2nc(C(=O)N3CCC(O)(CN(C)C)C3)cc(C)n2n1 (stereo unspecified)	3	-1
N#CCCSc1nnc(Cc2ccccc2)n1-c1ccccc1	4	2
COc1ccc(CCNC(=O)c2cccnc2N2CCN(S(=O)(=O)c3cccs3)CC2)cc1OC	19	9
O=C1C2C3C=CC(C4CC34)C2C(=O)N1c1ccc([N+](=O)[O-])cc1Br (stereo unspecified)	-9	-16
CCn1cc(S(=O)(=O)Nc2nc3cc(Cl)ccc3n2C)cn1	5	3
c1ccc(CN(Cc2nccs2)Cc2cccn2-c2nccs2)cc1	-4	-4

A second format for part of the listing above.
Every second line gives: NPYLR7 ag	NPYLR7 ag max-min
CCOC(=O)c1c(NC(=O)c2ccno2)c(-c2ccc(OC)cc2)cn1Cc1ccccc1
→ 7	21
CC(C)NC(=O)CNC(=O)CSc1nc2ccccc2s1
→ 21	6
COc1nc(-c2cccc(C(F)(F)F)c2)n(-c2ccc(NC(=O)c3ccc(C)c([N+](=O)[O-])c3)cc2)n1
→ 19	14
CCOc1ccccc1N1CCN(C(=O)c2cc(-c3cccc(OC)c3)nc3cc(-c4ccccc4)nn23)CC1
→ -3	3
CCc1ccc(C(=O)Nc2c(-c3ccc(C)cc3)nc3ccccn23)cc1
→ -1	4

4 of the compounds above, with each value named.
> CN(C)c1ccc(NC(=O)c2cccc(F)c2)cc1CN(CC1CCCO1)C(=O)Cc1cccs1 (stereo unspecified)
  NPYLR7 ag = -5; NPYLR7 ag max-min = 4
> COc1ccc(C)cc1C(C)Nc1cc(C)nc2ncnn12 (stereo unspecified)
  NPYLR7 ag = 0; NPYLR7 ag max-min = -2
> COc1ccccc1N1CCN(CCCCNC(=O)c2ccc3ccccc3c2)CC1
  NPYLR7 ag = -5&5; NPYLR7 ag max-min = -6&-4
> CCOC(=O)c1c(NC(=O)c2ccno2)c(-c2ccc(OC)cc2)cn1Cc1ccccc1
  NPYLR7 ag = 7; NPYLR7 ag max-min = 21

Going on with the list.
SMILES	NPYLR7 ag	NPYLR7 ag max-min
O=C(Cn1cc(C(F)(F)F)ccc1=O)NN=Cc1ccc([N+](=O)[O-])o1	3	20
O=C(Oc1coc(CSc2ncccn2)cc1=O)C(c1ccccc1)c1ccccc1	-10	-10
CC(C(=O)NC1CCCCC1)N1CCN(S(=O)(=O)c2ccc(Br)cc2)CC1 (stereo unspecified)	10	10
COc1ccc2oc(=O)c(C(=O)Nc3cccc(Cl)c3)cc2c1	-8	-18
N#CC(NC(=O)c1[nH]ncc1Br)c1cccc(Cl)c1 (stereo unspecified)	-5	-5
CCc1ccccc1NC(=O)CCNc1ncnc2c1CCNC2	0	2
CC1CCc2nc(N)sc2C1 (stereo unspecified)	10	5
CCOC(=O)C1=C2SCC(=O)N2C(N)=C(C(=O)OC(C)C)C1	-1	-2
O=C(NC1CCOC2(CCCCC2)C1)C1(c2cccc(F)c2)CC1 (stereo unspecified)	2&9	-1&2
Cc1cc(C(=O)C(C)Sc2nnc(C3CC3)n2C2CC2)c(C)n1Cc1ccco1 (stereo unspecified)	0	7
COc1ccc(CCN(C)C(=O)C(C)(C)Oc2ccc(CCNC(=O)c3ccc(Cl)cc3)cc2)cc1OC	-2	-7
O=C(c1ccccc1)N(Cc1cccnc1)c1nc2cc3c(cc2s1)OCO3	-10	-4
Brc1ccc(OCc2cn3ccccc3n2)cc1	3&9	0&12
O=C1CC(C(=O)N2CC(c3ccncc3)C2)CN1Cc1cccnc1 (stereo unspecified)	2	13
CCCCOc1ccc(S(=O)(=O)NC(=O)C2(C)CCN2C(=O)Cc2cc(F)ccc2F)cc1 (stereo unspecified)	4	3
O=C([C@H]1CCCN1)N1CCc2[nH]nc(C(c3ccccc3)c3ccccc3)c2C1	-5	-8
CC(C)(C(=O)NCCSCc1ccccc1C#N)c1ccccc1	1	0
Cn1cc(N2CCCC(Sc3cn[nH]n3)C2=O)cn1 (stereo unspecified)	-5	-5
CCCC(NC(=O)C1CCC(=O)N1)c1ccc(Cl)c(Cl)c1 (stereo unspecified)	6	-6
CC(CN1CCOCC1)NC(=O)c1ccc(OCC(=O)C2CC2)cc1 (stereo unspecified)	2	-1
CC1CC(C)CN(C(=O)C(C)NC(c2ccccc2)c2ccccc2)C1 (stereo unspecified)	-1	0
CCn1c(C(=O)N2CCN(C(=O)Cc3ccc(OC)cc3)C(C)C2)cc2ccsc21 (stereo unspecified)	-6	-3
Cc1ccccc1Cn1c(N2CCN(Cc3ccccc3F)CC2)nc2c1c(=O)[nH]c(=O)n2C	-7	-11
O=C(C1CCCC1)N1CCCC(OCc2cc(F)ccc2F)C1 (stereo unspecified)	-6	-4
CCCCNC(=O)Cn1nc(C(F)(F)F)cc1C	-2	-8
COc1ccc(-c2nn(-c3ccc(C)cc3)c(OC(C)=O)c2-c2ccc(N)cc2)cc1OC	42	39
OCCn1c(-c2ccc(F)cc2)nc(=S)c2c1CCCC2	2	1
C=C(CC(=O)OC)C(=O)N[C@@H](C)[C@H](O)c1ccccc1	-4	-7
C=CCn1c(SCc2c(F)cccc2Cl)nnc1-c1cc(OC)cc(OC)c1	16	20
CC(C)c1nc(CN(C)C(=O)c2sccc2Cl)cs1	1	0
OCCC1CN(Cc2ccc3c(c2)OCCO3)CCN1Cc1ccsc1 (stereo unspecified)	18	7
O=c1c2nc(N3CCOCC3)sc2c(-c2ccco2)nn1Cc1ccc(C(F)(F)F)cc1	-1	-4
O=C(COc1ccccc1)OCc1cc(-c2ccc(F)cc2F)on1	-1	-3
COc1cc(OC)cc(C(=O)NC2CCN(c3ccccc3C(=O)NCCN3CCCCC3)CC2)c1	0	1
Cn1cnc([N+](=O)[O-])c1Sc1ccc(Cl)cc1	3	0
O=C(c1csc2c1CCCC2)N1CCN(S(=O)(=O)C=Cc2ccccc2)CC1	-2	4
NC(=O)CN1CCC(NC(=O)NCC2(c3ccccc3)CC2)CC1	-3	-3
CCCN(C)C(=O)NC(C)COCC(C)C (stereo unspecified)	0	-5
O=C(CCc1cc(=O)[nH]o1)N1CC[C@@H](c2ccc3ccccc3c2)[C@H](O)C1	-4	-4
Cc1cc(-c2nc(N)nc(N(C)C)n2)n(C)n1	-1	2
O=[N+]([O-])c1ccc(NC(c2ccccn2)c2c[nH]c3ccccc23)cc1 (stereo unspecified)	3	3
O=C(c1ccc(Cc2ccccc2)o1)N1CCN(c2cccc3[nH]ccc23)CC1	-3	-11
Cc1cc(C)c(S(=O)(=O)Nc2cc(F)cc(F)c2)c(C)c1	2	0
CCOC(=O)C1=C(C)N(CC)C(=S)NC1c1ccc(NC(=O)c2cc(Cl)cc(Cl)c2)cc1 (stereo unspecified)	-2	0
COCCCNCC(=O)NCC(=O)Nc1cccc(C)c1	-5	-13
N#CC1(NC(=O)COc2ccc(C(=O)c3ccccc3)cc2)CCCCC1	-3	-5
CCCC1=C(C(=O)OCC)C(c2cc(OC)c(OC)c(OC)c2)NC(=O)N1 (stereo unspecified)	-5	-7
CC(=O)O[C@H]1CC[C@@]2(C)C(C[C@H](OC(C)=O)[C@@]3(C)C4=CC(=O)OC(c5ccoc5)[C@]4(C)CCC23)C1(C)C (stereo partly specified)	-4	-11
c1ccc2sc(SN3CCOCC3)nc2c1	-18	-25
Cc1cccc(C)c1NC(=O)NC(Cc1ccccc1)C(=O)Nc1nnc(-c2ccc(F)cc2)s1 (stereo unspecified)	10	1

Additional compounds follow:
SMILES	NPYLR7 ag	NPYLR7 ag max-min
CC1(C(=O)NS(=O)(=O)c2ccc(F)cc2F)CCN1C(=O)C1(c2ccc(Cl)cc2)CCC1 (stereo unspecified)	0	-1
Cc1ccn2c(NC(C)(C)C)c(-c3cccc(OS(=O)(=O)c4cccc5ccccc45)c3)nc2c1	-3	-1
COC(=O)c1sc2nc(C)cc(C)c2c1N	0	-4
c1ccc(N2CCCC2)c(CNc2nc3ccccc3o2)c1	10	6
Cc1c(C(=O)N(C)Cc2ccc(F)cc2)sc(=O)n1CC(=O)c1ccc(F)cc1	8	5
COc1ccccc1C1=NN(C(=O)CN2CCCC2)C(c2ccc(Cl)cc2)C1 (stereo unspecified)	1	-1
COc1cc(-c2noc(CCN(CC(C)C)CC(O)COCC(C)C)n2)cc(OC)c1OC (stereo unspecified)	3	3
Cc1sc2ncnc(N/N=C\c3cccc(O)c3)c2c1C	3	-1
O=c1c2ccccc2n(Cc2ccccc2Cl)c(=O)n1CCO	4	2
CNS(=O)(=O)c1cc(C(=O)NC(C)c2c(C)nn(C)c2C)cc(C)c1C (stereo unspecified)	7	6
Cc1cc(C)cc(-n2nc(C(=O)N3CCCC3)c(=O)n(Cc3cccc(Cl)c3)c2=O)c1	0	8
Cc1cccc(C)c1NC(=O)CN(C)C(C)c1ccc(F)cc1 (stereo unspecified)	1	-2
CCc1nc([C@@H]2C[C@H](NC(C)=O)C[C@H](C3CCCCC3)O2)c(C)[nH]1	3	3
O=C(Cn1cc(C(F)(F)F)cc(Cl)c1=O)NC(=O)NC12CC3CC(CC(C3)C1)C2	1	7
CC(=O)c1c(C)oc2ccc(N(C(=O)c3ccncc3)S(=O)(=O)c3cc(C)ccc3C)cc12	3	0
Cc1ccc2nc(CSc3nnc(-c4ccc5c(c4)OCO5)o3)cn2c1	5	8
Cc1nnc(SCC(=O)N(Cc2cnn(C)c2)CC(C)C)s1	-2	-10
CCc1nc(C)c(C(=O)N(C)Cc2cccc3ncccc23)s1	-20	-21
CC(=NCCCn1ccnc1)c1c(-c2ccccc2)[nH]n(-c2nc3ccccc3s2)c1=O	-4	-2
O=C(C1CC1)N1CCN(Cn2sc3ccccc3c2=O)CC1	8	12
CCc1ccc2nc(N(CCCn3ccnc3)C(=O)C3COc4ccccc4O3)sc2c1 (stereo unspecified)	4	-2
CCCNC(=O)CN(C)C(=O)CSc1nnc(-c2ccc(F)cc2)o1	1	-1
Cc1nccn1CC(C)NCC1CCN(C2CCCC2)CC1 (stereo unspecified)	-4	-8
O=C(CSc1nc(C(F)(F)F)cc(=O)[nH]1)NCc1ccccc1	-4	-5
C/C(=N\N1CCN(C)CC1)c1c(C(F)(F)F)[nH]n(-c2nc3ccccc3s2)c1=O	-13	-15
Cc1ccc(C)c(OCC(=O)N(C)C(C)c2ccncn2)c1C (stereo unspecified)	6	3
CCn1cnnc1CN(C)C(=O)/C=C/c1ccccc1	1	0
CCCN(Cc1cccc(Cl)c1)C(=O)c1cnc(CC)nc1	2	0
COCCC(=O)N1CCOCC1c1cc(C(=O)Nc2ccccc2)no1 (stereo unspecified)	0	-1
CSc1nc2ncc3c(=O)n(-c4ccc(C(C)=O)cc4)ccc3n2n1	5	8
CC(C)Cc1cc(CN2CC(C(=O)O)CC2=O)on1 (stereo unspecified)	1	-3
FC(F)(F)c1ccc2c(c1)n(Cc1ccc(Cl)c(Cl)c1)c1[n+]2CCCCC1	0	-4
O=C(c1ccco1)N1CCCC(OCc2cccc(OC(F)(F)F)c2)C1 (stereo unspecified)	-6	-1
COCCn1cc(NC(=O)N2CCC(Oc3cc(C)ccc3C)CC2)cn1	15	11
Cc1cc(C)cc(-c2nc3cc(C)ccn3c2NC(=O)C(C)(C)C)c1	4	13
COc1cc(C)c(C(C)C)cc1S(=O)(=O)n1cccn1	0	9
COc1ccc(C(=O)N2CCN(C(=O)c3cc(-c4ccc(Cl)cc4)n(-c4ccccc4F)c3C)CC2)cc1	-6	-1
Cc1ccccc1-n1nc(C(C)(C)C)cc1NC(=O)CN(CCc1ccccc1)C(=O)c1ccco1	-6	1
NC(=O)CCN(C(=O)CN1CCCC1c1ccc2c(c1)OCCO2)c1ccc(F)cc1 (stereo unspecified)	-3	-3
